High-throughput results: PubChem BioAssay, Johns Hopkins Ion Channel Center
KCNQ2 block: KCNQ2 channel blockers in CHO-K1 cells – cell-based, FluxOR thallium flux, B-score, primary screen (AID 2156); O88943; 20 min; stronger effect = lower value; only compounds with negative scores are shown here; some inactives read as strong as hits; B-score at 10 µM; 310,000 tested, 1.1% active;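 active = fluorescence ratio B-score at most minus 3 library SDs, with starting brightness B-score within 2 library SDs, cut at about -5.5 in these data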
Target sequence (O88943 whole entry, looked up): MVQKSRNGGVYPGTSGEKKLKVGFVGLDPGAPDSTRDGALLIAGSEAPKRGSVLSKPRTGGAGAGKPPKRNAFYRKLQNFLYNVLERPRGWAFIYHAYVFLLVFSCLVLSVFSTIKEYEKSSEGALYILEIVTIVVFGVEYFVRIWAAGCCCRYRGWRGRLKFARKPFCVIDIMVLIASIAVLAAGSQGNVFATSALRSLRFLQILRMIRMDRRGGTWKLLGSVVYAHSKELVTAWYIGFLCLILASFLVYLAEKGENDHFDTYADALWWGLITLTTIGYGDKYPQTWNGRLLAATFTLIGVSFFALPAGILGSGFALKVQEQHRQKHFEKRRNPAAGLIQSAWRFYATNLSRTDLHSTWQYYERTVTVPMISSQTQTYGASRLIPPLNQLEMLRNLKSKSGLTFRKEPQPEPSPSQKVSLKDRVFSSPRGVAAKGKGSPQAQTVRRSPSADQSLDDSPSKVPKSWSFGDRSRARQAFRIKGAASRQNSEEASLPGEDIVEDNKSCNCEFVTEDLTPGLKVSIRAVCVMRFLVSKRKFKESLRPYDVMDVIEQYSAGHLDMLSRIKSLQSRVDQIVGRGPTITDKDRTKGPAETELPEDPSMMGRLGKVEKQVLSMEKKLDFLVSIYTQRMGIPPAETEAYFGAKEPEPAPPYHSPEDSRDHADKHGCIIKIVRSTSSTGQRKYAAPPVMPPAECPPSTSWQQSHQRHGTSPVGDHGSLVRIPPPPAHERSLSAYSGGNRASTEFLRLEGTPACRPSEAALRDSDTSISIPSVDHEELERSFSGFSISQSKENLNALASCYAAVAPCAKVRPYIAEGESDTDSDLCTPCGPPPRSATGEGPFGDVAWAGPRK
KCNQ2 block baseline: further read-out of KCNQ2 block, marked with its call; B-score; measured here: initial fluorescence intensity artifact check;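 brightness before thallium and not channel activity; 0 = typical well and far values either way flag optical interference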
Numbers without * were called inactive; i = inactive. A portion of the library, so the mix of outcomes need not match the whole.

SMILES | KCNQ2 block | KCNQ2 block baseline
c1cnc2c(C3NCCc4c3[nH]c3ccccc43)cccc2c1 (stereo not drawn) | i | 0.07
CCNC(=O)CC1C(=O)N(CC)C(=S)N1NC(=O)c1ccccc1 (stereo not drawn) | i | 0.82
O=C(NC1Cc2ccccc2C1)c1cc(COc2cccc(C(F)(F)F)c2)on1 | i | 1.4
COc1cc(OC)cc(-c2nc3ccccc3c(=O)n2OC(=O)c2ccc(Br)cc2)c1 | i | 0.77
C=CCN1C(=O)OC2(CCCCC2)C1(C)O (stereo not drawn) | i | 2.5
CC(=O)NN(O)C1N(C)C(=O)N(Cc2ccccc2)C1(C)C (stereo not drawn) | i | -0.17
COc1ccccc1C(=O)NCc1nnc(SCC(=O)Nc2nccs2)n1C | i | 0.53
CC(C)c1ccccc1NC(=O)CCc1nc2ccccc2s1 | i | -0.1
O=C(O)c1ccc(-c2ccccc2Cl)o1 | i | -1.9
COC(=O)c1cccc(C#CC(NP(=O)(c2ccccc2)c2ccccc2)c2ccccc2)c1 (stereo not drawn) | -6.3* | -0.47*
Cc1cc(C(C)(C)C)oc1C(=O)N(CC(=O)NC1CCCC1)c1ccc(F)cc1 | i | -0.35
COc1ccc(CCNS(=O)(=O)CCNC(=O)c2ccccc2)cc1 | i | 1.8
COC(=O)c1cccc(C23CC4(C2)[C@H](CN(C)[C@@H]4c2ccccc2)C3c2ccc(C(F)(F)F)cc2)c1 (stereo partly drawn) | i | -0.08
Cc1ccc(C(=O)CSc2nnc(-c3ccccc3)n2-c2ccccc2)o1 | i | -0.05
Cc1ccccc1N=C1SCCN1C(=O)CN1C(=O)NC2(CCCC2)C1=O | i | 0.86
O=[N+]([O-])c1ccc(N2CCN(c3ccc([N+](=O)[O-])cc3CO)CC2)c(CO)c1 | i | -0.99
CC1(CCc2ccccc2)NC(=S)N(c2ccc(Cl)cc2)N1 (stereo not drawn) | i | 2.3
O=C(COC(=O)c1ccc(F)cc1)Nc1cc(S(=O)(=O)N2CCOCC2)ccc1N1CCCC1 | i | -1.1
COc1ccc(CNC(=O)Cc2ccc(-c3ccccc3)cc2)cc1OC | i | 0.47
CCC1SC2=NC(C)=C(C(=O)OC)C(c3ccc(C(=O)OC)cc3)N2C1=O (stereo not drawn) | i | 0.04
CC(=O)NC(CCS(C)(=O)=O)C(=O)Nc1nc(C)cs1 (stereo not drawn) | i | 0.66
CCOc1cc(CNCc2cccs2)ccc1OCC(=O)NC(C)(C)C | i | -0.49
O=C(O)c1ccccc1C(=O)c1ccc(Br)s1 | i | -0.54
O=C(Nc1ccc(N2C(=O)C3C4C=CC(C4)C3C2=O)cc1)Nc1cccnc1 (stereo not drawn) | i | 0.24
COc1ccc(CNCC(O)COc2ccc(C)cc2[N+](=O)[O-])cc1 (stereo not drawn) | i | 3.3
CCOC(=O)c1c(NC(=O)c2cccs2)sc2c1CCN(C(=O)OCC)C2 | i | 0.56
COc1ccc2c(CC(=O)NC3CCCc4ccccc43)coc2c1 (stereo not drawn) | i | -2.1
COc1cc(C2NC(=O)CCC2[N+](=O)[O-])cc(Br)c1OC (stereo not drawn) | i | -0.17
O=C(NCc1cccnc1)c1cccc(OC2CCN(Cc3ccc(CO)o3)CC2)c1 | i | 0.18
CC1(C)Oc2nc3ccccc3n2/C1=C\C#N | i | 1.9

The final 5 compounds of the section above are carried over, then new ones follow:
SMILES | KCNQ2 block | KCNQ2 block baseline
CCOC(=O)c1c(NC(=O)c2cccs2)sc2c1CCN(C(=O)OCC)C2 | i | 0.56
COc1ccc2c(CC(=O)NC3CCCc4ccccc43)coc2c1 (stereo not drawn) | i | -2.1
COc1cc(C2NC(=O)CCC2[N+](=O)[O-])cc(Br)c1OC (stereo not drawn) | i | -0.17
O=C(NCc1cccnc1)c1cccc(OC2CCN(Cc3ccc(CO)o3)CC2)c1 | i | 0.18
CC1(C)Oc2nc3ccccc3n2/C1=C\C#N | i | 1.9
Cc1ccc(/C=C(\C#N)c2nn(-c3ccccc3)c(N)c2C#N)cc1 | i | -0.98
COc1ccc2nc(NC(=O)CC3Oc4ccccc4NC3=O)sc2c1 (stereo not drawn) | i | -0.03
O=S(=O)(N/N=C\c1c(F)cccc1Cl)c1ccc(Cl)cc1 | i | 0.78
O=C(CN1C(=O)NC(Cc2c[nH]c3ccccc23)C1=O)NC1CC1 (stereo not drawn) | i | -2.7
COc1ccc(-c2cn3c(C)c(C(=O)N4CCc5ccccc5C4)sc3n2)cc1 | i | 1.2
CC(=O)Nc1ccc(NC(C)=O)c(NC2OCC(O)C(O)C2O)c1 (stereo not drawn) | i | -0.69
COc1ccccc1CNC(=O)C1CCCN(S(C)(=O)=O)C1 (stereo not drawn) | i | 0.39
CCN(CC)S(=O)(=O)c1ccc(N2CCN(S(=O)(=O)c3ccc4c(c3)OCCO4)CC2)nc1 | i | 0.49
CCCS(=O)(=O)c1c(S(=O)(=O)CCC)c2c(N)cccn2c1C(=O)c1ccc(F)cc1 | i | -0.99
O=C(CCN1CCc2ccccc2C1)Nc1ccc(F)c(F)c1 | i | 0.99
Cc1ccc(NC2CCCN(C(=O)CCC(=O)c3ccccc3)C2)cc1C (stereo not drawn) | i | -0.03
CCC1CCCCN1CCCNC(=O)c1ccc2c(=O)n(Cc3ccc(OC)cc3)c(=O)[nH]c2c1 (stereo not drawn) | i | 0.61
O=C(NC(=S)NNC(=O)c1ccccc1F)c1cccnc1 | i | 0.87
c1ccc(Oc2nc(-c3cccnc3)nc3ccccc23)cc1 | i | 0.01
O=C(NC1CCCCC1)C(c1cccs1)N(C(=O)Cc1c[nH]c2ccccc12)c1ccc(F)cc1 (stereo not drawn) | -6.8* | -0.09*
CC(=O)Nc1ccc(Oc2ccccc2)cc1 | i | 1
CC(=O)NCCCc1nc2ccccc2n1Cc1ccccc1C | i | 3.3
O=C(Nc1oc2ccccc2c(=O)c1-c1ccc(Br)cc1)c1ccco1 | i | 2.5
Cc1cc(C)c(NC(=O)c2cccc3c2C(=O)N(C2CCCCC2)C3)c(C)c1 | i | 2.7
O=C(CNC(=O)c1ccccc1)NCCc1nc2ccccc2[nH]1 | i | -0.36
Cc1cccc(N=C2NC(=O)CS2)c1 | i | 1
O=C(CCN1C(=O)c2ccccc2C1=O)C1=NN[C@@H]2C(=O)N(c3ccc4c(c3)OCO4)C(=O)[C@H]12 | i | -0.1
CC(=O)c1cccc(NC(=O)CN2CCc3cc4c(cc3C2)OCCCO4)c1 | i | -1.1
CC1CCN(S(=O)(=O)c2ccc3ncn(CC(=O)N(C)Cc4ccccc4)c(=O)c3c2)CC1 | i | -2.6
CCCc1ccc(Oc2coc3cc(OCC(=O)Nc4ccccc4C)ccc3c2=O)cc1 | i | -0.64
Cc1ccc(-c2nc(CSCC(=O)N3CCN(c4ccccn4)CC3)c(C)o2)cc1 | i | -1.5
C(=C\c1ccco1)/c1ccc2ccccc2n1 | i | -0.18
CC(OC(=O)c1cccc(S(=O)(=O)Nc2cccc(C(F)(F)F)c2)c1)C(=O)Nc1ccc2c(c1)OCCO2 (stereo not drawn) | i | -1.5
Cc1oc(-c2ccccc2)cc1C(=O)Nc1ccccc1 | i | 0.46
CCOC(=O)c1ccc(NS(=O)(=O)c2ccc3[nH]c(=O)[nH]c3c2)cc1 | i | 1.3
CC(OC(=O)Cc1c[nH]c2ccccc12)C(=O)Nc1ccc(S(N)(=O)=O)cc1 (stereo not drawn) | i | 0.88
CCN(CC)CCNc1nc(-c2ccc(OC)cc2)c(-c2ccc(OC)cc2)s1 | i | 2.2
Cn1c2ccccc2c(=O)c2c(=O)n(C3CCCCC3)c(-c3cccs3)nc21 | i | 2.1
Clc1ccc2oc(-c3cccnc3NCc3ccccc3)nc2c1 | i | -0.09
C=CCNc1nc(Cl)nc(Nc2ccc(OC)cc2)n1 | i | -1.9
Cc1cc(NC(=O)COC(=O)c2ccc(S(=O)(=O)N3CCCc4ccccc43)cc2)no1 | i | -0.46
CCc1cc(=O)oc2c(C)c(OCC(=O)NCCCN3CCCC3=O)ccc12 | i | 1.4
CN(C)C(=O)C1OC(C)(C)OC1C(=O)N(C)C (stereo not drawn) | i | 0.43
Cc1cc(C)cc(C(=O)OCC(=O)Nc2cccc(S(=O)(=O)NC3=NCCCCC3)c2)c1 | i | -1.1
COC(=O)c1sc(S(=O)(=O)N2CCN(c3ccccc3)CC2)c(C(=O)OC)c1C | i | -0.45

In the list so far, two have a tert-butyl group:
SMILES | KCNQ2 block | KCNQ2 block baseline
Cc1cc(C(C)(C)C)oc1C(=O)N(CC(=O)NC1CCCC1)c1ccc(F)cc1 | i | -0.35
CCOc1cc(CNCc2cccs2)ccc1OCC(=O)NC(C)(C)C | i | -0.49

Back to the main list, starting six compounds before the break.
SMILES | KCNQ2 block | KCNQ2 block baseline
C=CCNc1nc(Cl)nc(Nc2ccc(OC)cc2)n1 | i | -1.9
Cc1cc(NC(=O)COC(=O)c2ccc(S(=O)(=O)N3CCCc4ccccc43)cc2)no1 | i | -0.46
CCc1cc(=O)oc2c(C)c(OCC(=O)NCCCN3CCCC3=O)ccc12 | i | 1.4
CN(C)C(=O)C1OC(C)(C)OC1C(=O)N(C)C (stereo not drawn) | i | 0.43
Cc1cc(C)cc(C(=O)OCC(=O)Nc2cccc(S(=O)(=O)NC3=NCCCCC3)c2)c1 | i | -1.1
COC(=O)c1sc(S(=O)(=O)N2CCN(c3ccccc3)CC2)c(C(=O)OC)c1C | i | -0.45
O=C(Nc1ccc(Cl)cc1Cl)Nn1cnnc1 | i | 1.9
Cc1nc2ccc(S(=O)(=O)NC(C(=O)NCc3ccco3)C(C)C)cc2s1 (stereo not drawn) | i | -1.7
CCC1Oc2ccccc2N(CC(=O)NCCCN2CCN(CC)CC2)C1=O (stereo not drawn) | i | -0.89
CCOC(=O)Cn1c(C(=O)OCC)cc2sccc21 | i | -0.55
Cc1ccc(F)cc1NC(=O)N1CCCN(c2ccc(C(F)(F)F)cn2)CC1 | i | -0.33
Cc1nn(-c2ccccc2C(=O)O)c(=O)c2ccccc12 | i | -0.53
NC(=O)c1ccc(Oc2ccc(Cl)c3ccccc23)c([N+](=O)[O-])c1 | i | 2.4
CCc1ccc(N2CC(O)=C(c3nc4ccccc4c(=O)[nH]3)C2=N)cc1 | i | -0.48
COC(=O)c1ccc(Cn2c(O)c(N=O)c3ccccc32)o1 | i | 5.8
O=C(CN1CCN(S(=O)(=O)c2ccc(Br)cc2)CC1)N/N=C/c1ccc(Cl)c([N+](=O)[O-])c1 | i | -3.5
COc1ccc(C(C(=O)NC2CCCCC2)N(CC2CCCO2)C(=O)C2COc3ccccc3O2)cc1OC (stereo not drawn) | i | -0.49
COc1ccc(-n2c(=O)n(Cc3ccccc3)c(=O)c3[nH]cnc32)cc1 | i | 1.6
CC(=O)c1c(N2CCOCC2)nc2ccc(Cl)cc2c1-c1ccccc1 | i | 0.83
CCOc1ccc(C(CCc2ccccc2)NC(=O)c2ccccc2F)cc1OCC (stereo not drawn) | i | -1.4
COc1ccc(CC(=O)NC(c2ccccc2)c2ccccc2)cc1S(=O)(=O)N1CCOCC1 | i | -0.86
O=C(NCCCn1ccnc1)C(=O)NCC(c1ccco1)N1CCN(c2ccccc2)CC1 (stereo not drawn) | i | -0.38
Cc1ccc(/C=N/N=C/c2ccc(C)s2)s1 | i | 0.08
CC1CN(C(=O)CCC(=O)NCc2ccccc2Cl)c2ccccc2S1 (stereo not drawn) | -7.4* | -0.98*
COc1ccccc1N1CCN(Cc2c[nH]c3ccccc23)CC1 | i | -0.17
Cc1ccc([N+](=O)[O-])cc1S(=O)(=O)NCCc1c(C)[nH]c2ccccc12 | i | 3.1
CCN(CC)C(=O)CC(c1ccc2c(c1)OCO2)c1c(OC)cc(OC)c2c(-c3ccccc3)cc(=O)oc12 (stereo not drawn) | i | -0.97
O=C(Nc1ccc(F)cc1F)c1cc(Cl)sc1Cl | i | -0.74
COc1ccc(N2CCN(S(=O)(=O)c3ccc(-n4cnnn4)c(C)c3)CC2)cc1 | i | 0.95
CCCCOC(=O)c1[nH]c2c(c1C)C(=O)CC(c1cc(OC)c(OC)c(OC)c1)C2 (stereo not drawn) | i | -0.56
CC(OC(=O)C1CCN(S(=O)(=O)c2ccccc2)CC1)C(=O)Nc1ncc(Cl)cc1Cl (stereo not drawn) | i | -0.42
N#CNC1=NCN(Cc2ccccc2)CN1 | i | 0.77
CCOC(=O)c1oc2cc(O)cc(C)c2c(=O)c1-c1cscn1 | i | -1.6
COc1cccc(C(=O)N2N=C(c3cccc(OC)c3)CC2(O)C(F)(F)F)c1 (stereo not drawn) | i | 1.1
Cc1[nH]c2ccccc2c1/C=N/NC(=O)Nc1ccccc1 | i | 1.9
Cc1cc(C)n(-c2nnc(Cl)c3ccccc23)n1 | i | -0.13
O=C(O)c1ccccc1C(c1ccc(O)cc1)c1ccc(O)cc1 | i | -0.96
O=C(CCC(=O)Nc1nnc(C2CCCCC2)s1)NCc1cccs1 | i | -0.15
O=C(CN(Cc1ccc2c(c1)OCO2)C(=O)c1cnsn1)NC1CCCC1 | i | -1.2
CC(Oc1cccc(Cl)c1)C(=O)Nc1cc(S(=O)(=O)N2CCCCC2)ccc1N1CCOCC1 (stereo not drawn) | -7.6* | -1.1*
Cc1ccc(NC(=O)Cc2ccc(-c3ccccc3)cc2)nc1 | i | 1.4
COc1ccccc1OCC(=O)NNC(=S)NC(=O)c1ccco1 | i | 0.42
O=C(Nc1nnc(-c2cccs2)o1)c1ccco1 | i | 1.8
COc1ccc2[nH]c(C(=O)NCc3ccccc3)cc2c1 | i | -0.52
COc1ccc(C2=NNC(c3cc(Cl)cc4c3OCOC4)C2)c(O)c1 (stereo not drawn) | i | 2.5
